AF4-AF9 inh = inhibitors of AF4 peptide binding to AF9, primary screen, biochemical, AlphaScreen, biotin-AF4 peptide, FLAG-AF9, single point; Protein AF-9 (Homo sapiens), P42568; inhibition, % at 10 µM; actives 0.47% (n = 350,000);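 active = every replicate reaching a set inhibition limit, whatever the replicate mean, cut at about 25% in these data; inconclusive = mean inhibition reaches that limit but some replicates miss it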;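 also: 0% = plate neutral control median and 100% = total signal loss; the record names both 10 and 1 µM as test concentration; the first replicate is given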
Target sequence (P42568 whole entry, looked up): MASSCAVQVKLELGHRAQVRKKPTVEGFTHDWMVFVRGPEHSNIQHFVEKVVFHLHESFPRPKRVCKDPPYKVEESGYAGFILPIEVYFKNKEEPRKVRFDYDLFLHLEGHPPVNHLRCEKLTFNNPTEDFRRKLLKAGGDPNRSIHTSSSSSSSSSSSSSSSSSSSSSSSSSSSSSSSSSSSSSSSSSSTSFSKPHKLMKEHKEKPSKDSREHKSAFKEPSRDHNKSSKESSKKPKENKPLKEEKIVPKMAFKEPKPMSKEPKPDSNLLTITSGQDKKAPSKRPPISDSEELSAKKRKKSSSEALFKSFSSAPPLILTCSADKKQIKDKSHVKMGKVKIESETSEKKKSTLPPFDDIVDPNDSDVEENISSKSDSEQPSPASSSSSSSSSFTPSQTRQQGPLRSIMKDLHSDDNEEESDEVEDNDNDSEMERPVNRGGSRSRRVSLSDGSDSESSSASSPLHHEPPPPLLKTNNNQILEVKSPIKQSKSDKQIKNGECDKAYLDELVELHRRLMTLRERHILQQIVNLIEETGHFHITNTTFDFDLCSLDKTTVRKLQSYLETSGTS
UCH37 DUB inh = inhibitors of human UCH37 deubiquitinase, primary screen, biochemical, Ub-AMC cleavage, fluorescence | AID 588478, 2011 | purified proteasome/UCH37 | actives 0.33% (n = 330,000) | inhibition, % (no concentration beside the values);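 active = mean of two replicates above 20%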;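 also: 0% = compound-free wells with enzyme and 100% = wells lacking proteasome; stock transfer was 100 nL into about 20 µL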
Target sequence (Q9Y5K5 whole entry, looked up): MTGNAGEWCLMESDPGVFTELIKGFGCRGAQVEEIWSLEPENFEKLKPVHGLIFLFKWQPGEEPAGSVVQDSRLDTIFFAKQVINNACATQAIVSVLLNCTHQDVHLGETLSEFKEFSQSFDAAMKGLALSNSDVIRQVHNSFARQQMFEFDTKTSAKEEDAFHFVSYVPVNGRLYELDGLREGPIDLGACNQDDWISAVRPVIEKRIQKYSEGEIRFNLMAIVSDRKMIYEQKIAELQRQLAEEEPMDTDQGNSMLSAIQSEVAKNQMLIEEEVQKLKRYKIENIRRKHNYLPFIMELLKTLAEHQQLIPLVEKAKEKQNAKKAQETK
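Signal – fluorescence, ex 355 nm, em 460 nm · System – Proteasome-bound UCH37 · Input – 0.15 nM proteasome as dispensed · Timing – 30 min preincubation with enzyme, 25 min cleavage at room temperature · Read-out basis – percent inhibition of cleavage signal versus uninhibited and no-proteasome wells · Medium – Tris-HCl pH 7.4 with ATP-MgCl2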
T cruzi inh = inhibitors of intracellular T. cruzi growth, primary screen, luminescence, NIH3T3 host cells; T. cruzi beta-gal in NIH3T3, 90 h; inhibition, % (test concentration not listed); actives 1.4% (n = 300,000); AID 1885, 2009;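 active = mean inhibition across valid replicates above about 55%, limit read from the data; inconclusive = mean below that limit but half or more replicates reach it; inactive = mean below it, under half of replicates reach it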;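 also: signal also drops with host cell toxicity which is not excluded here; 0% = plate median of DMSO wells and 100% = zero luminescence signal; higher percent means less beta-gal luminescence so fewer parasites; stock transfer was 50 nL into about 50 µL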
FGF22 binding = binders of human FGF22 protein, primary screen, FGF22 synaptogenesis inhibitor project, biophysical, thermal shift, single point; Fibroblast growth factor 22 (Homo sapiens), Q9HCT0; recombinant FGF22 thermal shift, SYPRO orange fluorescence; percent of sucrose octasulfate shift, DMSO zero; calls only at 9.99 µM; actives 1.5% (n = 340,000);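 active = melting point raised past a set limit in the mean and every replicate; inconclusive = no clear call; three in four hits are not shown here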
Target sequence (Q9HCT0 whole entry, looked up): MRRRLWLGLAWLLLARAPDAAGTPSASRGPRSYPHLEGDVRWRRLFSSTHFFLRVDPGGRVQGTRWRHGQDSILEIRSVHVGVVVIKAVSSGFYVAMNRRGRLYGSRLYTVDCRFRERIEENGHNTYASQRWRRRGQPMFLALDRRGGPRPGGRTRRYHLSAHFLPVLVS
Ecoli rRNA inh = reduced GFP signal of wild-type E. coli, primary screen, bacterial rRNA inhibitor project, GFP/RFP fluorescence, OD600, single point; E. coli WT GFP vs humanized-ribosome RFP mutants, 24 h; stronger effect = lower value; DMSO median 0, no signal -100; GFP signal change (wild-type ribosome), % (test concentration not listed); actives 1.6% (n = 350,000); AID 720706, 2013;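 active = significant combined selectivity score with lowered wild-type GFP, culture density cut under 30%, mutant RFP and density less affected; inactive = any of these conditions unmet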; also: one replicate is shown; some compounds called inactive have numbers as strong as hits
A1 inh = caspase 3/7 activation in MEF A1-2A-BIM cells, primary screen, A1 inhibitor project, cell-based, luminescence, HTS | Caspase-Glo 3/7 luminescence, 3 h; percent of clofoctol response, vehicle zero | caspase activation, % (test concentration not listed) | actives 0.066% (n = 330,000);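 active = over half of replicate activation scores above 10%, or exactly half above 10 with the replicate mean above 10; inconclusive = replicate mean below 10 yet half the replicates above 10; inactive = over half of replicates below 10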;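 also: wells of about 30 µL received 50 nL stock; many hits fall short of the cut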
E coli growth = E. coli growth inhibition, primary screen, OD600; AID 1053175, 2014; actives 0.21% (n = 330,000); Escherichia coli growth, 23 h; stronger effect = lower value; OD600 absorbance (concentration not given with the values);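 active = OD600 absorbance below the run mean of sample wells minus 3.6 SD, in any replicate, cut at about 0.56 in these data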;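 also: stock transfer was 300 nL into about 60 µL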
Beta cell apopt = inhibitors of cytokine-induced beta cell apoptosis, primary screen, luminescence | INS-1E cytokine-induced death, ATP luminescence, 48 h; percent of positive-control rescue, neutral wells zero | actives 0.8% (n = 300,000) | protection from apoptosis, % (test concentration not listed);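 active = all replicates at 75% or more, or half of them and the mean; inconclusive = half reach 75% but not the mean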;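 also: 0% = cytokine-treated negative control wells and 100% = positive control rescue; higher means more ATP so stronger rescue from cytokine killing; wells of about 40 µL received 100 nL stock; the first replicate is given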
Ecoli rRNA inh OD600 = second read-out of Ecoli rRNA inh, no call of its own (marks repeat the call); OD600 change, %; measured here: OD600 growth;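 optical density of the mix in the first replicate; 0 = DMSO median and -100 = no signal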
Ecoli rRNA inh RFP = recorded beside Ecoli rRNA inh, whose call it bears; RFP signal change, %; measured here: RFP humanized mutant strains;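 first replicate; 0 = DMSO median and -100 = no signal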
Active calls of the source: *; i = inactive; ? = inconclusive; . = not tested or not shown.

The line under a structure holds: AF4-AF9 inh	UCH37 DUB inh	T cruzi inh	FGF22 binding	Ecoli rRNA inh	Ecoli rRNA inh OD600	Ecoli rRNA inh RFP	A1 inh	E coli growth	Beta cell apopt
- CN(C(=O)c1cccc(NC(=O)Cc2cccc(NC(=O)C3CCCN(C(=O)C4CCCCC4)C3)c2)c1)C1CCC1 (centres undefined)
→ -2.1	-0.2	.	.	1	0	-0.9	.	0.7	.
- COc1ccccc1CC(=O)N(CCC#N)CCC#N
→ .	4.5	-8	.	.	.	.	0.3	0.72	0
- CC(=O)c1cc(F)c(N2CCN(C(=O)COc3ccccc3F)CC2)cc1C
→ .	3.0	1	.	.	.	.	-0.3	0.71	4
- O=C(Nc1ccc2oc(-c3ccncc3)nc2c1)c1c(F)c(F)c(F)c(F)c1F
→ .	-34	.	.	.	.	.	-0.3	0.7	-2
- O=C(O)c1c2c(nc3ccc(S(=O)(=O)N4CCC(C(=O)NCc5ccc(Cl)cc5)CC4)cc13)CCCC2
→ 2.4	2.1	-5	i	7	11	-0.7	-2.4	0.68	-3
- C/C(=N\NC(=O)c1ccc2c(c1)OCO2)c1ccc2c(c1)OCO2
→ -2.5	.	-18	i	9	5	-0.3	-1.2	.	-4
- Cc1ccc(-c2cc(C(=O)N3CCN(c4ncccn4)CC3)c3ccccc3n2)cc1
→ .	-7.6	2	.	.	.	.	-1.5	0.72	7
- N#Cc1ccccc1NC(=O)COC(=O)c1ccc2c(c1)OCCO2
→ .	1.8	3	.	.	.	.	0.6	0.61	-3
- COc1ccc(OC)c(NC(=O)c2cnn(-c3ccccc3)c2C)c1
→ -2.8	1.1	8	i	-14	-6	-1.2	0.4	0.7	-3
- O=C(NCc1ccccc1)c1cnc(Cl)c(Cl)c1
→ -14	4.9	15	i	-2	1	-3.4	0.1	0.69	1
- COc1cccc(NC(=O)C(NCC2CCCCC2)c2ccccc2)c1 (centres undefined)
→ .	-0.9	14	.	.	.	.	0.5	0.66	-7
- CCc1ccc(N(CC(=O)NCC2CCCO2)C(=O)CCC(=O)Nc2nccs2)cc1 (centres undefined)
→ -16	-0.8	-9	i	0	5	-2.2	-0.1	0.68	5
- CCC(=O)Oc1ccc(C2NC(=O)c3ccccc3O2)cc1OC (centres undefined)
→ 0.8	-3.4	-19	i	7	2	3.1	-0.3	0.63	2
- Cc1c(Cl)cccc1N1C(=O)C2ON(c3ccccc3)C(c3cccnc3)C2C1=O (centres undefined)
→ .	0.2	-4	.	.	.	.	0.5	0.66	.
- COC(C[C@H](O)[C@@H](C)[C@H](O)COCc1ccccc1)OC
→ 1.8	0.8	.	i	8	9	9.8	.	.	.
- Cc1cccc(NC(=O)CNC(=O)CN2C(=O)NC3(CCc4ccccc43)C2=O)c1C (centres undefined)
→ -0.6	0.7	.	i	2	2	0.0	.	0.67	.
- O=C1c2ccccc2C(=O)N1CCSc1nc2ccccc2c(=O)n1CCCN1CCOCC1
→ 1.3	3.0	1	i	6	4	-2.3	-0.1	0.71	8
- CC(C)c1ccc(OCC(=O)N2CCc3ccccc3C2)cc1
→ -8.9	5.9	1	i	-13	-23	-0.4	-0.2	0.71	-6
- COc1cccc(NC(=O)CSc2nc3c([nH]c4ccccc43)c(=O)n2C)c1
→ -6.2	.	21	i	3	4	-2.2	0.4	.	28
- O=C(Nc1ccc(F)cc1F)C1CC(=O)N(Cc2ccccc2)C1 (centres undefined)
→ -2.9	-0.1	.	i	19	16	0.1	1.2	0.64	1
- CSc1ccc(C(=O)C2CCCN(C(=O)c3ccc4c(c3)OCO4)C2)cc1 (centres undefined)
→ 1.8	7.3	9	i	-40	-58	-13	-0.1	0.69	-3
- CNC(=S)N1CCn2cccc2C1c1cc(OC)c(OC)c(OC)c1 (centres undefined)
→ 5.8	3.0	-5	i	5	-4	-2.3	-0.6	0.67	4
- CCN1CCN(c2ccc(S(=O)(=O)N3CCCCC3)cc2NC(=O)COc2ccc(Cl)c(C)c2)CC1
→ 9.6	2.9	39	i	-1	-1	-1.0	-0.7	0.68	8
- CC(C)[C@H](NC(N)=O)C(=O)Nc1ccc(OCc2ccccc2)cc1
→ -2.3	-3.0	-6	i	8	6	-0.2	-0.4	0.69	-3
- Cc1ccc(N(CC(=O)Nc2ccc3c(c2)OCCO3)S(=O)(=O)c2c(C)noc2C)cc1
→ .	4.3	-6	.	.	.	.	0.4	0.66	2
- CCOC(=O)N1CCC(N2CCN(c3ccccc3)CC2)CC1
→ 4.7	-0.2	9	i	0	-3	-2.7	-0.2	0.63	2
- CCOC(=O)c1nnn(-c2nonc2N)c1-c1cccc2ccccc12
→ .	-2.8	6	.	.	.	.	0.6	0.71	-2
- CC(NC(=O)c1ccc(NC(=O)CC2SC(N3CCCC3)=NC2=O)cc1)c1ccccc1 (centres undefined)
→ 0.8	1.2	.	i	10	8	2.3	-0.2	0.71	-9
- CN1CCN(c2ccc(S(=O)(=O)N3CCCCC3)cc2NC(=O)Cc2ccccc2F)CC1
→ .	1.8	45	.	.	.	.	-0.5	0.65	-9
- Cc1ccc(NC(=O)CSC2=C(C#N)C(c3ccc4c(c3)OCO4)C3=C(CCCC3=O)N2)c(C)c1 (centres undefined)
→ .	3.3	27	.	.	.	.	1.1	0.67	.
- Nc1ccccc1-c1nnc(SCc2ccccc2Cl)[nH]c1=O
→ .	3.3	14	.	.	.	.	-0.2	0.67	1
- CCOC(=O)CNc1ncnc2nc[nH]c12
→ 2.7	5.2	-1	i	2	2	0.7	0.9	0.72	-3
- Cc1ccc(C)c(NC(=S)NCc2cccs2)c1
→ 4.5	2.7	-15	i	-2	5	-1.3	1.4	0.68	6
- CCOC(=O)c1ccc(NS(=O)(=O)N2CCCCCC2)cc1
→ .	4.1	-1	.	.	.	.	-0.7	0.75	2
- COc1ccc(NC(C)=O)cc1NS(=O)(=O)c1cn(C)c(=O)n(C)c1=O
→ ?	-0.1	-8	i	2	14	-5.1	0.7	0.79	-4
- O=S(=O)(NCc1cccnc1)c1cc(Cl)ccc1Cl
→ 1.4	-1.2	-9	i	.	.	.	0.0	0.65	-1
- CCN(CC)C(=O)Cn1cc(C(=O)C(=O)N2CCCc3ccccc32)c2ccccc21
→ 0.7	7.0	.	i	-7	-13	3.4	-0.5	0.7	0
- C=CCNCCCCOc1ccccc1
→ .	2.6	3	.	.	.	.	-0.3	0.68	-12
- COc1ccc(C(=O)Nc2nccs2)cc1OC
→ .	3.0	5	.	.	.	.	-0.9	0.66	-11
- CS(=O)(=O)c1ccccc1C(=O)Nc1ccc(-c2nc3ccccc3[nH]2)cc1
→ 1.8	4.8	-13	i	-5	-1	0.3	-0.6	0.71	-3
- COc1ccc(NC(=O)CCNC(=O)c2ccco2)cc1Cl
→ -0.5	6.2	-11	i	0	-18	18	0.8	0.68	-2
- N#Cc1cc(-c2ccc(Cl)cc2)cnc1Sc1ccccc1
→ .	0.2	56*	.	.	.	.	-0.8	0.74	4
- CC(=O)N1CCN(Cc2nc3cc(NC(=O)c4ccccc4)ccc3n2C)CC1
→ .	1.5	-5	.	.	.	.	-0.1	0.76	-13
- Nc1cc(N)nc(SCCOc2ccccc2)n1
→ .	4.1	-10	.	.	.	.	-3.6	0.67	-18
- CN(C)CC/C=C1\c2ccccc2COc2ccccc21
→ 1.0	3.3	9	i	3	7	2.3	.	.	.
- CCC(OC(=O)c1cc2sccc2n1C)C(=O)NCC1CCCO1 (centres undefined)
→ .	4.6	.	.	.	.	.	0.3	0.66	3
- Cc1ccc(-c2cccc(C3CC=CC4C3C(=O)N(Cc3ccccc3)C4c3cc(C)ccc3F)c2)cc1 (centres undefined)
→ 1.9	-0.5	23	i	9	17	-1.2	0.6	0.73	62
- COc1ccc(C(=O)CC(=O)C(=O)Nc2cccc(F)c2)cc1
→ 1.2	11	-20	i	3	6	0.8	-0.2	0.66	5
- O=C(NN=C1CCCCCCC1)c1ccc(F)cc1
→ -0.1	-3.3	-4	i	17	8	-2.9	0.8	0.69	-1
- COCc1cc(C)nc(SCC(=O)Nc2ccccc2C)c1C#N
→ .	-1.8	-3	.	.	.	.	0.8	0.69	-8

Continued:
The line under a structure holds: AF4-AF9 inh	UCH37 DUB inh	T cruzi inh	FGF22 binding	Ecoli rRNA inh	Ecoli rRNA inh OD600	Ecoli rRNA inh RFP	A1 inh	E coli growth	Beta cell apopt
- O=C(CCC(=O)NNC(=O)COc1ccccc1)NCc1ccccc1
→ -45	2.7	-15	i	14	8	-1.2	0.2	0.71	2
- CCCC(=O)c1ccc(N2CCN(S(=O)(=O)c3ccccc3)CC2)c(F)c1
→ .	0.1	16	.	.	.	.	-1.2	0.68	3
- Cc1ccc(-c2cn(S(=O)(=O)c3cccc([N+](=O)[O-])c3)nc2N)cc1
→ -20	1.8	63*	i	11	19	-3.2	0.9	0.68	-6
- CN(CC(=O)Nc1ccc(N2CCOCC2)cc1)C(=O)Cc1ccccc1
→ 1.1	-1.0	.	i	2	12	0.2	-0.5	0.68	-7
- CN(C(=O)COc1ccccc1)c1nnc(C23CC4CC(CC(C4)C2)C3)s1
→ -5.2	2.4	4	i	-2	0	-2.4	0.3	0.72	-2
- COc1ccccc1NC(=O)c1oc2ccccc2c1NC(=O)C1CC1
→ 0.9	-103	6	i	-2	-2	-0.8	0.3	0.7	10
- CCOc1ccccc1NC(=O)c1ccc2c(c1)C(=O)N(C(C)(C)C)C2=O
→ -1.4	-15	1	i	5	6	-0.7	-0.9	0.63	-5
- O=C(CN(Cc1ccccc1F)C(=O)c1csnn1)NC1CCCCC1
→ 4.9	1.6	-9	i	11	11	2.6	-0.4	0.62	-2
- Cc1ccc(OCc2nnc(SCC(=O)O)n2N)cc1
→ -43	4.0	-12	i	-4	-16	5.4	1.7	0.66	3
- O=C(NCC(=O)N(c1ccc(F)cc1)C(C(=O)NC1CCCC1)c1cccnc1)c1cccs1 (centres undefined)
→ -0.6	3.0	-2	i	10	15	-1.7	1.1	0.66	-1
- O=C(c1ccccc1)c1ccc(C(=O)N2CCOCC2)cc1
→ .	-1.9	0	.	2	10	-1.2	-0.3	0.75	-2
- Cc1ccc(S(=O)(=O)N2CCC(C)CC2)cc1C(=O)NCCN1CCOCC1
→ -1.0	-2.1	11	i	2	5	2.8	0.4	0.7	-3
- COc1cc2c3c(c1OC)C1(C=CC(=O)C=C1)CC3N(C(=O)c1ccccc1)CC2 (centres undefined)
→ .	2.6	28	.	.	.	.	1.7	0.74	-4
- Cc1cccc(NC(=O)CCc2ccc(S(=O)(=O)NC3CCCCC3)cc2)c1
→ .	2.5	-11	.	.	.	.	-0.7	0.75	1
- CC1CCN(C(=O)CSc2nnc(-c3cccs3)o2)CC1
→ -3.4	1.6	-3	.	-3	-11	1.9	1.1	0.68	4

Assay outcomes deposited in PubChem BioAssay by several laboratories.

Some of the compounds tested (hit frequency here may not be typical).
